Screening results from PubChem BioAssay.
gsp antag – antagonizes gsp, the McCune-Albright syndrome mutation. gsp-mutant cells, cAMP HTRF, 30 min; control for the full effect not named in the record. Potency, µM (series often up to 76.9 µM), for the others: top-dose activity change, negative = inhibition, actives largely listed as inhibitors. 0.4% of 340,000 active. AID 624288; active = falling curve of any shape with a large fitted effect; inconclusive = falling curve, mostly with a smaller effect; inactive = flat or rising curve; cell line not stated here;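 note: intracellular cAMP measured with PDE inhibitor Ro 20-1724 present during compound exposure; potency is the fitted concentration of half-maximal effect; % is set by controls: 0 for no effect and ±100 for the full control effect; nearly all actives have a fitted effect of over 65% in size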
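G418-selected cells were plated in DMEM/10% FBS for 16-24 h at 37C, then treated with compounds plus the PDE inhibitor […] (300 uM solution added) for 30 min at 37C. Intracellular cAMP was measured by HTRF after 30 min lysis at room temperature.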
Sfp PPTase inh – Sfp phosphopantetheinyl transferase inhibition; Q9F4F7; Biochemical Sfp PPTase activity, qHTS; Potency, µM, for the others: max response, negative = inhibition, hits mostly inhibitors; 3.5% of 310,000 active; active = well fitted inhibition curve with a large enough effect; inconclusive = small, poorly fitted or top-dose-only effect, or another doubt; inactive = no such curve, though single readings can be large or run the other way;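 note: the enzyme is Sfp with the accession as filed and its product quenches rhodamine fluorescence; potency is the fitted concentration of half-maximal effect; 0% = enzyme reaction without inhibitor and -100% = no enzyme wells; top concentration of the series not given in the record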
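Reaction rates are the 30-min fluorescence difference (ex 525, em 598 nm) in wells containing 15 nM Sfp, 5 uM rhodamine-CoA and 12.5 uM BHQ-2-YbbR at pH 7.6 with 10 mM MgCl2.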
ClpP mod – qHTS Assay for Activators of ClpP. AID 651965, 2013. 1.9% of 340,000 active. purified B. subtilis ClpP, FRET peptide cleavage, 20 min. Potency, µM (doses to about 57.5 µM), inactives show at the highest dose activity change, negative = active; active = well fitted falling curve with a large enough effect; inconclusive = small, poorly fitted or top-dose-only effect; inactive = no such curve, though single readings can be large or run the other way; note: potency is the fitted concentration of half-maximal effect; the source files actives as falling curves though it sought activators and does not explain the sign; nearly all actives have a fitted effect of over 65% in size; many hits overshoot -100%
Target sequence (P80244 whole entry, looked up): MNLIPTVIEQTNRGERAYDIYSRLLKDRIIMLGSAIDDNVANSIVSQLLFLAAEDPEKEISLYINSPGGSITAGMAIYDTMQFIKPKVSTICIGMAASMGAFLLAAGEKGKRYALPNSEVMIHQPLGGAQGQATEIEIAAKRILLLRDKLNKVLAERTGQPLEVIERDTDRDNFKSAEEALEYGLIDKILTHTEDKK
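Purified B. subtilis ClpP, 10 microg/mL final in Tris/HCl pH8 with KCl, BSA, glycerol and Tween-20, cleaved an Abz/nitrotyrosine-quenched decapeptide. Fluorescence (ex 320, em 430) was read at 0 and 20 min at room temperature. Delta was normalized to 5.8 microM ADEP and DMSO/no-enzyme controls.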
Menin-MLL FL inh – displaces fluorescein MLL peptide from human menin; FP activity change, % at 61.4 µM; Fluorescence polarization, fluorescein-MLL peptide displacement from menin; 290,000 tested, under 10 active; inconclusive = falling polarisation curve, or a change in total fluorescence; inactive = total fluorescence flat and polarisation flat or rising; no compound was filed as active; the % refers to the polarisation; negative = inhibition;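 note: % of control where 0% means no effect; inhibitors lower the polarisation; unlabelled MLL peptide was the positive control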
gsp agonist – activates gsp, the McCune-Albright syndrome mutation; 0.13% of 340,000 active; AID 624287; gsp mutant cells, cAMP HTRF, 30 min; control for the full effect not named in the record; Potency, µM (top dose mostly 76.9 µM), for inactives: at the highest dose activation (cAMP increase), usual class: activators; active = well fitted activation curve with a large enough effect; inconclusive = small, poorly fitted or top-dose-only effect, or another doubt; inactive = no such curve, though single readings can be large or run the other way; cell line not stated here;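 note: phosphodiesterase inhibitor Ro 20-1724 added with compounds to block cAMP breakdown; potency is the fitted concentration of half-maximal effect; nearly all actives have a fitted effect of over 60% in size; about a fifth of the inactives were tested at one dose only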
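Cells stably selected in G418 were plated at 2000/well, grown 16-24 hr, then given compounds in DMSO with the PDE inhibitor […] (300 uM solution added) for 30 min at 37C; cAMP was read by HTRF.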
D2 potentiator – positive allosteric modulators of human D2 dopamine receptor | P14416 | DiscoveRx D2 beta-arrestin cells, luminescence, 90 min; 100% = 57 uM dopamine signal | potentiation, % (no concentration beside the values) | 0.23% of 360,000 active | AID 624464; active = potentiation of 50% or more; inconclusive = 30% to 50%; inactive = 30% or less;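 note: compound concentration not given in the record; tested on top of an EC20 dose of dopamine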
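PathHunter D2 cells, attached overnight at 37 deg C, received compound in DMSO plus dopamine at EC20 (50 nM final) for 90 min at 37 deg C. Beta-arrestin recruitment was read as luminescence after 1 h with detection reagent at ambient temperature.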
TRPV1 PAM – potentiators of human vanilloid receptor 1 (TRPV1); 0.02% of 320,000 active; Q8NER1; TRPV1-expressing cells, Fluo-8 calcium influx, capsaicin EC20 potentiation; host cell line not named in the record; control for the full effect not named in the record; potentiation, % at 8.33 µM; active means potentiation above 80%; inconclusive means 30% to 80%; inactive means below 30%; note: 0% is about no effect
Target sequence (Q8NER1 whole entry, looked up): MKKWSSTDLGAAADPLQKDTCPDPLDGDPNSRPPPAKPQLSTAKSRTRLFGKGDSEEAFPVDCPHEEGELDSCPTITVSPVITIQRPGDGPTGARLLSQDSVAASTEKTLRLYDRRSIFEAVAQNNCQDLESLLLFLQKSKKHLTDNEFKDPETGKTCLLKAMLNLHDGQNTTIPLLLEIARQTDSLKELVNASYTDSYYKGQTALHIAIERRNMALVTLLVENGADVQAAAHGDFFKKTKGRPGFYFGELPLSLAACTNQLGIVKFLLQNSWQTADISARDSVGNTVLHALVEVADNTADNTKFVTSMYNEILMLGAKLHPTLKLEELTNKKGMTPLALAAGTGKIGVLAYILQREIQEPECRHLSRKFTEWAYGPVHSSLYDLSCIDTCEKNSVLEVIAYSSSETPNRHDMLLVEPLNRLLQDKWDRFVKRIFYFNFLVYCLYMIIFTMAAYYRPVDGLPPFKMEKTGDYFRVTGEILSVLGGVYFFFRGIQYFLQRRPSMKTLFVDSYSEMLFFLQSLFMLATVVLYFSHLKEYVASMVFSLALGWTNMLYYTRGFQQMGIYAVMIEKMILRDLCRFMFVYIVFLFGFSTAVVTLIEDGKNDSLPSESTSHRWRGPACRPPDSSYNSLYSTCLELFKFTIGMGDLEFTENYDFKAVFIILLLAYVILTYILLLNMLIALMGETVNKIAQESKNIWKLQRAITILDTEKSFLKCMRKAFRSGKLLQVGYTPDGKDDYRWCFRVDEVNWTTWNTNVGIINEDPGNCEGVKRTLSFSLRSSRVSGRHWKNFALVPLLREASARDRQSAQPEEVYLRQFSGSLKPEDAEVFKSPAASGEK
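Cells expressing TRPV1 were dye-loaded with Fluo-8 and read kinetically: 10 s baseline, 3 min after compound (agonist portion), then 2 min after EC20 capsaicin (allosteric enhancer portion). Calcium-bound dye fluorescence at 480/520 nm.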
* marks the source's active call; other numbers are inactive results; ? = inconclusive; . = not tested or not shown; [ ] = remark or other dose.

SMILES	gsp antag	Sfp PPTase inh	ClpP mod	Menin-MLL FL inh	gsp agonist	D2 potentiator	TRPV1 PAM
CCOc1ccccc1NC(=S)N1CCN(c2ccccc2F)CC1	-2%	6%	.	0.6	1%	-10	-1
COc1ccc(C2C3=C(CCCC3=O)Nc3nc(-c4cc(OC)c(OC)c(OC)c4)nn32)cc1OC (stereo unspecified)	13%	-5%	-8.3%	-0.6	?	-9	-26
O=C(c1sc2cc(F)ccc2c1Cl)N1CCN(c2ccccc2)CC1	0%	-10%	-4.3%	0.7	1%[15.4 µM]	-8	0
COc1ccc(N(Cc2cc3cccc(C)c3[nH]c2=O)S(C)(=O)=O)cc1	8%	-8%	-15%	-2.6	-22%	-17	3
Cc1[nH][nH]c(=O)c1C(c1ccc(F)cc1)c1c(C)[nH][nH]c1=O	5%	8%	2.6%	1.8	-11%	30	-9
Cc1ccccc1/C=C/C(=O)c1ccc([N+](=O)[O-])o1	-9%	.	0.8%	.	.	7	2
CCOc1ccc(N2CC(C(=O)Nc3cc(S(=O)(=O)N4CCCCC4)ccc3C)CC2=O)cc1 (stereo unspecified)	-10%	.	-2.7%	.	0%	-14	.
CNS(=O)(=O)c1ccc(C(=O)NCC(=O)NCCC(c2ccccc2)c2ccccc2)cc1	2%	.	-1.9%	.	-10%	-3	2
CCOc1nc2cnccc2n(CC(=O)Nc2ccccc2C(=O)OC)c1=O	5%	18%	1.7%	.	39%	-8	2
COC(=O)c1ccc(CNC(=O)CSc2nc3sc(C)c(C)c3c(=O)n2C)o1	-21%	22%	-2.0%	0.4	10%	-11	1
CC1Cc2ccccc2N1CC(=O)Nc1ccc(N2CCOCC2)cc1 (stereo unspecified)	2%	5%	.	4.8	-38%[inhibitor]	-4	2
CCC(C(=O)OC)n1cnc2c(nnn2-c2cccc(Cl)c2)c1=O (stereo unspecified)	-9%	-7%	-0.1%	3.1	-43%[inhibitor]	-6	.
COc1ccccc1NS(=O)(=O)c1ccc(C)c(NC(=O)c2c(C)noc2C)c1	6%	.	1.4%	.	?	-1	3
Cc1cccc(OCC(O)CN2CCN(c3ccccn3)CC2)c1C (stereo unspecified)	9%	-2%	-1.6%	-0.3	11%	-21	7
CC(C)(C)OC(=O)CNC(=O)c1[nH]cnc1C(=O)NCC(=O)OCc1ccccc1	-5%	13%	0.7%	-1.1	26%	?	-10

Arranged by value in Sfp PPTase inh (ascending): three of the compounds above
SMILES	gsp antag	Sfp PPTase inh	Menin-MLL FL inh	gsp agonist	D2 potentiator
COc1ccc(N(Cc2cc3cccc(C)c3[nH]c2=O)S(C)(=O)=O)cc1	8%	-8%	-2.6	-22%	-17
Cc1cccc(OCC(O)CN2CCN(c3ccccn3)CC2)c1C (stereo unspecified)	9%	-2%	-0.3	11%	-21
CC(C)(C)OC(=O)CNC(=O)c1[nH]cnc1C(=O)NCC(=O)OCc1ccccc1	-5%	13%	-1.1	26%	?

(listing goes on)
SMILES	gsp antag	Sfp PPTase inh	ClpP mod	Menin-MLL FL inh	gsp agonist	D2 potentiator	TRPV1 PAM
O=C(Cc1csc(N2CCOCC2)n1)N/N=C/c1ccccc1C(=O)O	5%	7%	0.3%	-5.2	-13%	-12	14
COc1cc(OC)cc(-c2nc3cc(C)ccc3o2)c1	-18%	19%	25µM*	0.5	16%	-5	7
Cc1cc(C)c(S(=O)(=O)N2CCN(S(=O)(=O)N3CCOCC3)CC2)c(C)c1	-4%	18%	-2.1%	-6.3	3%[15.4 µM]	-4	8
Cc1ccc(OCCCCN2CCCCC2)c(Br)c1	-14%	-6%	-2.3%	6.1	-3%	-29	4
Cc1nc2ccccc2c2nc3ccccc3n12	9%	-5%	?	2.7	8%	-15	-16
O=C(Nc1ccc(F)cc1)N1CCN(C/C=C/c2ccccc2)CC1	-2%	10%	1.6%	-2.3	-6%	-12	-13
CCSc1nnc2ccc(-c3cccs3)nn12	13%	10%	-25%	-3.1	29%	-13	-3
COC(=O)C1CCN(C(=O)c2sc3nc(-c4ccccc4)cn3c2C)CC1	-5%	14%	0.7%	2.6	-8%	-25	12
Cc1cc(C(=O)OCC(=O)N2CCCC2)c2ccccc2n1	7%	7%	-21%	-0.6	-25%	-1	1
CCc1ccccc1NC1=NCC(=O)N1C1CCCC1	8%	11%	-0.8%	-1.6	?	3	11
Cc1ccc(NC(=S)NNC(C)(C)C)cc1	16%	8%	.	-5.7	22%[15.4 µM]	-6	-1
Cc1ccc(OCC(=O)Nc2cccc3nsnc23)c(C)c1	6%	-3%	?	0.4	1%	-6	2
CC(C(=O)OCC(=O)c1ccc([N+](=O)[O-])cc1)N1C(=O)C2C3C=CC(C3)C2C1=O (stereo unspecified)	7%	10%	.	-1.8	2%[15.4 µM]	5	1
NCC(=O)NCC(=O)NC1(C(=O)O)CCCC1	-10%	.	0.9%	.	-19%	1	.
CCCC(=O)Nc1nc2nc(C)cc(=O)n2[nH]1	-5%	-24%	-0.3%	-4.0	3%	0	12
Cc1cc(C(=O)Nc2ccncc2)c(C)o1	-13%	.	-2.3%	.	-30%	3	.
CC(C)c1ccc(/C=N/NC(=O)c2c(Cl)cnn2C)cc1	-3%	8%	-16%	2.8	?	20	-5
Cc1cc(C)n(Cc2cccc(C(=O)N/N=C/c3ccncc3)c2)n1	-3%	2%	-0.3%	.	-67%[inhibitor]	-2	25
CCOC(=O)C1CCN(C(=O)CCNC(=O)Cn2cnc3ccccc3c2=O)CC1	16%	9%	-0.1%	0.4	-2%[15.4 µM]	1	-7
Cc1cccc(NC(=O)c2cc(-c3ccc(C)c(C)c3O)n[nH]2)c1	-5%	12%	-1.7%	-0.5	-8%	2	-13
Nc1ccc2c(c1)CCC2=O	-2%	.	?	.	?	4	.
CC(C)COP(=O)(OCC(C)C)C(O)c1ccc(N(C)C)cc1 (stereo unspecified)	-1%	0%	.	1.1	-18%[15.4 µM]	-9	-25
Cc1cc2c(ncn2Cc2ccccc2)c([N+](=O)[O-])c1C	-16%	-5%	0.6%	1.9	7%	-6	1
CCOc1ccccc1N(C(=O)c1snc(C(N)=O)c1N)C(C(=O)NCc1ccccc1)c1ccc(O)cc1 (stereo unspecified)	-7%	15%	.	2.3	-3%[15.4 µM]	-14	-12
Cc1cnc(NC(=O)C2CCCO2)s1 (stereo unspecified)	2%	10%	2.1%	1.1	-11%	-19	17
CC1CN(Cc2ccccc2)c2nc3c(c(=O)n(C)c(=O)n3C)n2C1 (stereo unspecified)	-5%	15%	-1.4%	4.6	39%	2	11
Cc1cccc(C(=O)O)c1NC(=O)c1ccc(F)cc1	2%	-15%	-3.1%	1.5	4%	-13	11
CC(=O)Nc1ccc(S(=O)(=O)N2CCN(Cc3nc4sc(C)c(C)c4c(=O)[nH]3)CC2)cc1	5%	0%	-3.2%	-1.2	16%	1	2
CC1(NC(=O)CSc2nnc(-c3c[nH]c4ccccc34)n2C2CC2)CCS(=O)(=O)C1 (stereo unspecified)	5%	.	0.0%	.	-12%	1	19
Cc1ccc(NC(=O)C2CCCCC2C(=O)O)cc1C (stereo unspecified)	1%	25%	0.8%	3.3	-43%[inhibitor]	4	0
Cc1ccc(S(=O)(=O)NCCc2cn3nc(C)c(C)nc3n2)cc1C	1%	8%	4.5%	-0.7	6%	-7	21
Cc1ccc(S(=O)(=O)N(C)CCCC(=O)Nc2ccc(F)cc2)cc1	2%	14%	-3.1%	?	5%	0	-4
C[C@H]1CN([C@@H](C)CO)C(=O)CCCn2cc(nn2)CO[C@@H]1CN(C)C(=O)CCC(F)(F)F	.	.	1.4%	.	-2%	-7	.
O=C(CC1NCCNC1=O)Nc1cccc([N+](=O)[O-])c1 (stereo unspecified)	18%	8%	-0.3%	2.3	0%	-2	-2
NC(=O)c1oc2ccccc2c1NC(=O)CS(=O)(=O)c1ccccc1	6%	6%	-7.0%	3.8	14%	-3	-5
O=C(Nc1cccc(S(=O)(=O)N2CCOCC2)c1)C1CCCN(C(=O)c2ccc(Cl)cc2)C1 (stereo unspecified)	-25%	22%	-2.2%	4.7	0%	-9	-8
COC(=O)c1ccc(Nc2ncnc3sccc23)cc1	4%	4%	-16%	3.9	-14%	-14	-10
COc1ccccc1OCCn1c(=O)n(C)c2ccccc21	3%	14%	.	-0.8	24%	4	-20
COc1ccc(Cn2c(=O)[nH]c3cc(C(=O)Nc4ccccc4C)ccc32)cc1	-45%	-10%	-0.2%	-0.4	-22%	0	19
O=C(O)c1ccc2c(c1)C(=O)N(c1cccc(S(=O)(=O)Nc3cccc(C(F)(F)F)c3)c1)C2=O	-2%	29%	.	-0.2	?	-2	6
Cc1ccc(NC(=O)NCc2cccnc2)cc1Cl	11%	8%	0.1%	.	-15%	-14	-4
O=C(CSc1nnnn1C1CC1)N1CCN(Cc2ccccc2F)CC1	8%	.	0.4%	.	-1%	0	3
CCCCN(C(=O)c1cccc2c(=O)c(C)c(-c3ccccc3)oc12)c1ccccc1	-11%	-22%	-0.4%	0.0	-20%	-1	15
CC(=O)c1ccc(S(=O)(=O)N(C)CCCC(=O)N2CCN(c3ncccn3)CC2)cc1	2%	.	1.6%	.	?	-1	6
O=C(COC(=O)COc1cccc(F)c1)Nc1nc2ccccc2s1	0%	.	0.5%	.	-14%	-3	.
O=C1c2ccccc2C(=O)c2c(/C=C/N3CCCCC3)ccnc21	-5%	.	-1.8%	.	8.9µM*	30	.

Among those listed so far, 5 contain two or more sulfur atoms:
SMILES	gsp antag	Sfp PPTase inh	ClpP mod	Menin-MLL FL inh	gsp agonist	D2 potentiator	TRPV1 PAM
COC(=O)c1ccc(CNC(=O)CSc2nc3sc(C)c(C)c3c(=O)n2C)o1	-21%	22%	-2.0%	0.4	10%	-11	1
Cc1cc(C)c(S(=O)(=O)N2CCN(S(=O)(=O)N3CCOCC3)CC2)c(C)c1	-4%	18%	-2.1%	-6.3	3%[15.4 µM]	-4	8
CCSc1nnc2ccc(-c3cccs3)nn12	13%	10%	-25%	-3.1	29%	-13	-3
CC(=O)Nc1ccc(S(=O)(=O)N2CCN(Cc3nc4sc(C)c(C)c4c(=O)[nH]3)CC2)cc1	5%	0%	-3.2%	-1.2	16%	1	2
CC1(NC(=O)CSc2nnc(-c3c[nH]c4ccccc34)n2C2CC2)CCS(=O)(=O)C1 (stereo unspecified)	5%	.	0.0%	.	-12%	1	19

The order is random, and some 5.1% of all compounds hit somewhere here.
